# Source: PubChem
# Mtb bLac sens = beta-lactam sensitization of Mtb H37Rv, H37Rv; M. tuberculosis H37Rv growth with meropenem, percent inhibition; hits of this screen are not shown here; inhibition, % at 25 µM; hit rate 0.27% among 330,000; AID 434955, 2010;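 active means about 74% or more and at least 40 points above the plate without the antibiotic, then above 30% in a dose series; inconclusive means first-round hits that could not be retested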;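 further: growth measured after seven days incubation then overnight dye step; 0% = bacteria only wells and 100% = bacteria with antibiotic; twin plates without the antibiotic show which effects depend on it; some results filed as inactive read as strong as hits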
# RecA splice inh = Mtb RecA intein splicing inhibitors, primary screen, biochemical, fluorescence, HTS; AID 2221, 2009; cell-free RecA intein splicing; inhibition, %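 (about 9 µM by stock and volumes)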; hit rate 0.75% among 290,000; in the data active means inhibition above about 30%; inconclusive means no clear call, values can overlap the other calls;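 further: 0% = vehicle wells and 100% = reference inhibitor control wells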
# Target sequence (P9WHJ3 whole entry, looked up, canonical isoform): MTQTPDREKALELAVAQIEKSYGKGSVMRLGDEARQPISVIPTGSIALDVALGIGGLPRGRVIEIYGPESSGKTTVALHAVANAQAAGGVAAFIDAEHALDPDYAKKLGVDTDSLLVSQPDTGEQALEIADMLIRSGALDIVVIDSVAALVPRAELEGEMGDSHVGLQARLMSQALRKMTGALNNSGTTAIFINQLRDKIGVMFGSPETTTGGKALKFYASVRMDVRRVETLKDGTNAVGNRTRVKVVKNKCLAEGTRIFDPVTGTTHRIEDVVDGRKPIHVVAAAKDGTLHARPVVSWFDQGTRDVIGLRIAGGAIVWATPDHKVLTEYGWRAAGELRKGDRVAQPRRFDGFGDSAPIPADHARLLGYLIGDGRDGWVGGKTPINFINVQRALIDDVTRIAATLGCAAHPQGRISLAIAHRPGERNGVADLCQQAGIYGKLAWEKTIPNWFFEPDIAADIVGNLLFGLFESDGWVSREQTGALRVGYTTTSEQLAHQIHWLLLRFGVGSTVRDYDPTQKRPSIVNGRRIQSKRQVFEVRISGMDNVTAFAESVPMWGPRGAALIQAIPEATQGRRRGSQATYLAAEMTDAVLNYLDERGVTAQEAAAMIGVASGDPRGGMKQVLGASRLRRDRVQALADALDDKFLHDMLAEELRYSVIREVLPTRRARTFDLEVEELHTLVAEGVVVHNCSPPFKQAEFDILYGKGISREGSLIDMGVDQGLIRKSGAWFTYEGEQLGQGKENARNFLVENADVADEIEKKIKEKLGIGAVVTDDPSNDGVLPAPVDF
# Mtb H37Rv = M. tuberculosis H37Rv growth inhibitors, H37Rv strain (AID 1626). M. tuberculosis H37Rv growth inhibition; higher % means a stronger effect. one-dose inhibition, % at 10 µM; IC50 in µM for titrated hits. hit rate 0.95% among 220,000;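 active means confirmed in a dose series; inconclusive means inhibition above 80% but not taken into the dose series; inactive means below 80% or under 30% at every dose of the series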;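 further: bacteria incubated seven days before Alamar blue readout; 0% = bacteria only wells and 100% = bacteria with antibiotic wells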
# YopH PTP inh = YopH tyrosine phosphatase inhibitors, primary screen, biochemical, fluorescence Ex485/Em525. inhibition, %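 (about 10 µM by stock and volumes)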. YopH tyrosine phosphatase [Yersinia enterocolitica]. hit rate 0.16% among 140,000. AID 898, 2007;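 active means inhibition of 50% or more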;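 further: controls were vehicle for no effect and minimum signal wells for full effect; inactives centre near -20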
# Arbovirus inh = antivirals against arbovirus infection, primary screen, cell-based, full library, 10K replicate subset. hit rate 0.37% among 200,000. inhibition, % at 10 µM. arbovirus infection cell-based antiviral screen. AID 1251, 2008;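 active means inhibition from about 30%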;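 further: bluetongue infection of BSR cells; cell survival read as ATP light after 72 h; 0% = infected wells without compound and 100% = uninfected wells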
# Arbovirus inh repeat = also measured in Arbovirus inh; calls as there; inhibition, %; measured here: 10K subset replicate screen; many hits read low in the repeat;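 first of two repeat runs on a subset; 0% = infected and 100% = uninfected wells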
# Starred values were filed as active, the others as inactive; ? = inconclusive; · = no result given. An excerpt; rates above refer to the full screens.
SMILES,Mtb bLac sens,RecA splice inh,Mtb H37Rv,YopH PTP inh,Arbovirus inh,others
CCOC(=O)c1ccc(N2C(=O)C(CC(N)=O)N(CCc3ccc(OC)c(OC)c3)C2=S)cc1 (stereo not given),84,-1.3,76%,·,3,
CC(=O)NS(=O)(=O)c1ccc(NC(=O)/C=C/c2ccc(C)o2)cc1,-4,-3.5,4%,·,6,
Cc1c(C(=O)N(C)C)sc2nc(-c3ccccn3)[nH]c(=O)c12,94,4.0,77%,-4,-9,
CC(=O)N1CCC(C(=O)N2CCN(S(=O)(=O)c3ccc(Cl)s3)CC2)CC1,-2,-1.6,·,·,·,
O=C(CNC(=O)c1cccs1)NCC(=O)OCc1cccc(Cl)c1,-8,-0.3,-1%,-54,1,
NC(=O)c1nsc(C(=O)N(c2ccc3c(c2)OCCO3)C(C(=O)NCC2CCCO2)c2ccc(F)cc2)c1N (stereo not given),-14,0.4,·,·,·,
COc1ccc(CCNC(=O)C2CCC(CNS(=O)(=O)c3ccc(F)cc3)CC2)cc1OC (stereo not given),-3,-1.4,2%,·,-5,
O=c1c2ccccc2nc(SCc2cc([N+](=O)[O-])cc3c2OCOC3)n1-c1ccccc1,9,-3.5,2%,3,10,
CCO[C@@H]1OC(C(=O)NC2CC2)=C[C@H](C(C)(C)C)[C@H]1CCCO,0,-1.2,-14%,·,·,
CCn1c(=O)c(C(=O)NCc2ccc(Cl)cc2)c(O)c2ccccc21,0,0.1,·,·,·,
O=P(c1ccccc1)(c1nc2ccccc2s1)N1CCOCC1 (stereo not given),5,0.2,-2%,4,3,
COc1ccc(N(CC(=O)NCCSCc2ccco2)S(=O)(=O)c2ccccc2)cc1OC,-5,0.4,·,·,·,
Cc1cc(C(F)(F)F)n(-c2nc(C(=O)O)cs2)n1,1,1.2,1%,·,18,
Cc1nnc(NC(=O)CSc2nccn2-c2cccc(C)c2C)s1,5,1.0,4%,-39,-10,Arbovirus inh repeat=-11
Cc1c(NC(=O)CSc2ccccn2)c(=O)n(-c2ccccc2)n1C,-5,-2.9,8%,-2,-3,
CCOC(=O)c1cnc2c(cnn2C)c1NCc1ccc(OC)cc1,-10,0.8,8%,·,10,
Cc1cccc2sc(NC(=O)CN3C(=O)c4ccccc4C3=O)nc12,-2,4.2,-5%,-32,5,
Cc1ccc(NC(=O)C2CC(=O)NC(N3CCc4ccccc43)=N2)cc1 (stereo not given),-4,·,-6%,-43,8,
CCOc1ccc(NC(=O)[C@@H](NC(=O)c2ccccc2)[C@@H](C)CC)cc1,-10,-2.8,-4%,-19,0,
CCCCOc1ccccc1NC(=O)Cn1c(-c2nonc2N)nc2ccccc21,-3,1.8,-8%,-35,-29,
COc1ccc(NC2=C(Cl)C(=O)N(CCc3ccccc3)C2=O)c(OC)c1,7,1.1,12%,-18,10,
Nc1nc2n(n1)C(=O)CC(c1ccc(Cl)cc1)N2 (stereo not given),4,-4.0,6%,·,17,
CC(c1nccs1)N(C)C(=O)c1ccc(OC2CCN(CCc3ccccc3)CC2)cc1 (stereo not given),1,3.8,·,·,·,
CC(C)(C)c1cc(NCCCn2ccnc2)n2ncc(-c3ccccc3)c2n1,100,21,1.8µM*,·,·,
CCn1nccc1C(=O)Nc1ccc(C(=O)OC(C)C)cc1,7,3.1,·,·,·,
COCCNC(=O)[C@H](C)[C@H]1C[C@]1(C)[C@H](NC(=O)OCc1ccccc1)c1ccccc1,-3,-1.5,-9%,-12,4,
Cc1ccccc1NC(=O)c1ccc(Cn2cc([N+](=O)[O-])cn2)o1,68,-1.4,2%,·,-2,
O=C1N/C(=C/c2cccs2)C(=O)N1Cc1ccc(F)cc1,-8,-1.9,-2%,·,-3,
O=C(Nc1ccncc1)C1CCN(S(=O)(=O)c2cccs2)CC1,-2,4.5,6%,·,5,
Cc1noc(C)c1CSCC(=O)N(CC(C)C)c1c(N)n(Cc2ccccc2)c(=O)[nH]c1=O,-1,-1.7,·,·,·,
O=C(CCc1nnc(-c2ccsc2)o1)N1CCCCC1CCn1ccnc1 (stereo not given),-1,-0.7,3%,·,0,
O=C(O)CC1Sc2nc3ccccc3n2C1=O (stereo not given),-2,0.3,·,-7,3,
Cc1cccc(C)c1N1C(=O)C(Cl)=C(N2CCCC2)C1=O,5,-6.3,·,·,·,
CCC(C)N(C(=O)CSc1nc(-c2ccccc2)cs1)C1CCS(=O)(=O)C1 (stereo not given),-10,-3.0,5%,-9,10,
CSc1ccccc1OCc1cc(C(=O)N2CCN(C)C(c3ccccc3)C2)no1 (stereo not given),16,1.1,·,·,·,
CCOC(=O)N1CCC(Nc2c(NCCCN(C)Cc3ccccc3)c(=O)c2=O)CC1,7,1.2,-7%,-29,5,
CCCn1nnc(NC(=O)c2ccc3c(c2)OCO3)n1,2,-1.7,-12%,·,·,
COc1ccc(CCCC(=O)N/N=C/c2ccc(C)cc2)cc1,39,-0.3,9%,·,-8,
O=C(CN1CCOc2ccccc21)N1CCC(Cc2ccccc2)CC1,5,2.6,6%,-39,2,Arbovirus inh repeat=1
O=C1C2C3C=CC(C3)C2C(=O)N1CCN1CCN(S(=O)(=O)/C=C/c2ccccc2)CC1 (stereo not given),-2,0.6,0%,·,-2,
CCCCCc1c(C)nc(Nc2ccccc2)[nH]c1=O,10,2.5,-3%,6,-5,
COc1ccc(C)cc1S(=O)(=O)N1CCN(C(=O)c2ncoc2-c2ccc(C)cc2)CC1,-2,2.4,·,·,·,
CSc1nccc(Oc2cccc(C#N)c2)n1,5,-1.9,2%,-23,14,
Cc1ccc2nc(SCC(=O)c3ccc4c(c3)OCO4)[nH]c2c1,4,8.1,-8%,-24,-1,
CCC(=O)Nc1nc2ccccc2n1Cc1ccc(Cl)cc1,97,0.0,<0.2µM*,·,-14,
CCOC(=O)c1cc(-c2ccc(Cl)cc2)nc2onc(C)c12,-7,0.1,·,-11,1,
CNS(=O)(=O)c1ccc2ccccc2c1,-7,0.4,16%,·,·,
CCOc1ccccc1N1CCN(C(=S)NCc2ccccc2)CC1,-3,-0.2,8%,·,19,
COC(=O)c1sccc1-n1cccc1C(=O)C(=O)N1CCOCC1,-5,-0.4,10%,·,-2,
O=C(Nc1ccccc1-c1nc2ccccc2s1)c1cccnc1,9,-1.0,8%,-8,-2,
Cc1ccc(-c2nc3c(cnn3-c3ccccc3)c(=O)o2)cc1,99,-0.1,6.2µM*,2,5,
Cc1cc(C)n(-c2ccc(C(=O)OC(C)C)cc2)n1,6,2.4,-8%,-19,10,
O=C/C(=C\Nc1ccccn1)c1nc2cc(Cl)ccc2o1,4,-6.2,?,8,14,
CCOc1ccc(S(=O)(=O)Nc2ccc(C(=O)N/N=C(\C)c3ccc(-n4ccnc4)cc3)cc2)cc1,-1,1.2,-1%,-12,7,
Cc1ccc(N(C(=O)c2ccncc2)C2C=CS(=O)(=O)C2)cc1 (stereo not given),-6,·,-9%,-32,7,Arbovirus inh repeat=3
CC(C)(C)OC(=O)NCCC(=O)N/N=C/c1ccc2nccnc2c1,-12,0.5,0%,·,·,
Cc1cccc(N2CCN(C(=O)c3ccc4c(c3)NC(=O)C(CSCc3ccc(F)cc3)N4)CC2C)c1 (stereo not given),74,33*,·,·,·,
O=C(O)/C(=C\c1ccco1)NC(=O)c1ccco1,-5,-1.0,·,·,·,
Cn1c(/C(C#N)=C2/CCCCCN2)nc2ccccc21,1,0.6,4%,-6,-5,Arbovirus inh repeat=2
COc1ccc2c(c1)-c1c(sn(-c3ccc(OC)c(OC)c3)c1=S)C(C)(C)N2,64,0.2,28%,-34,-26,

# Following part:
SMILES,Mtb bLac sens,RecA splice inh,Mtb H37Rv,YopH PTP inh,Arbovirus inh,others
COc1ccc(C(NC(=O)c2ccccc2F)NC(=O)c2ccccc2F)cc1,-3,-4.2,-4%,-21,-10,
Cn1c(=O)[nH]c(=O)c2c1nc(N1CCOCC1)n2CCc1ccccc1,-2,-5.2,-2%,·,6,
COc1ccc(NC(=O)CSc2nnc(Cn3c(=O)sc4ccccc43)n2C)cc1,-1,·,3%,-33,10,Arbovirus inh repeat=0
Cc1cc(Cl)ccc1OCC(=O)NC(=S)Nc1ccccc1N1CCOCC1,7,1.3,7%,-22,-3,
COc1ccccc1-n1c(=S)[nH]c2c(sc(=S)n2-c2ccccc2)c1=O,4,-25,-6%,·,6,
CCN1CCN(C(=O)C2CCN(S(=O)(=O)c3ccc4c(c3)NC(=O)C(C)S4)CC2)CC1 (stereo not given),-9,2.1,·,·,·,
Cc1c(Cl)cnc(NC(=O)COC(=O)c2cccc(S(=O)(=O)N3CCc4ccccc4C3)c2)c1Cl,-9,4.3,-6%,-20,8,
Cn1c(NCCCN2CCOCC2)nc2c1c(=O)n(Cc1ccc(Cl)cc1Cl)c(=O)n2C,-8,6.4,-8%,-32,-20,
COc1cc(S(=O)(=O)N2CCC(c3nc4ccccc4s3)CC2)ccc1S(=O)(=O)NC1CCCC1,5,1.9,-3%,-9,7,
Cc1cc([N+](=O)[O-])nn1CCC(=O)Nc1nccs1,0,0.2,-2%,·,6,
CC(=O)Nc1ccc(NC(=O)[C@@H](NC(=O)c2cccc(C)c2)C(C)C)cc1,5,-1.9,·,·,·,
CCOC(=O)C(NC(=O)c1ccccc1)=C1C=C(C)OC(C)=C1,42,-2.3,-2%,-51,-2,
COc1cc2c(cc1OC)-c1nnc(-c3cccs3)n1C(C)(C)C2,5,-1.4,6%,-14,-3,Arbovirus inh repeat=-1

# Of the compounds above, 13 have an aryl methoxy group:
SMILES,Mtb bLac sens,RecA splice inh,Mtb H37Rv,YopH PTP inh,Arbovirus inh,others
CCOC(=O)c1ccc(N2C(=O)C(CC(N)=O)N(CCc3ccc(OC)c(OC)c3)C2=S)cc1 (stereo not given),84,-1.3,76%,·,3,
COc1ccc(CCNC(=O)C2CCC(CNS(=O)(=O)c3ccc(F)cc3)CC2)cc1OC (stereo not given),-3,-1.4,2%,·,-5,
COc1ccc(N(CC(=O)NCCSCc2ccco2)S(=O)(=O)c2ccccc2)cc1OC,-5,0.4,·,·,·,
CCOC(=O)c1cnc2c(cnn2C)c1NCc1ccc(OC)cc1,-10,0.8,8%,·,10,
COc1ccc(NC2=C(Cl)C(=O)N(CCc3ccccc3)C2=O)c(OC)c1,7,1.1,12%,-18,10,
COc1ccc(CCCC(=O)N/N=C/c2ccc(C)cc2)cc1,39,-0.3,9%,·,-8,
COc1ccc(C)cc1S(=O)(=O)N1CCN(C(=O)c2ncoc2-c2ccc(C)cc2)CC1,-2,2.4,·,·,·,
COc1ccc2c(c1)-c1c(sn(-c3ccc(OC)c(OC)c3)c1=S)C(C)(C)N2,64,0.2,28%,-34,-26,
COc1ccc(C(NC(=O)c2ccccc2F)NC(=O)c2ccccc2F)cc1,-3,-4.2,-4%,-21,-10,
COc1ccc(NC(=O)CSc2nnc(Cn3c(=O)sc4ccccc43)n2C)cc1,-1,·,3%,-33,10,Arbovirus inh repeat=0
COc1ccccc1-n1c(=S)[nH]c2c(sc(=S)n2-c2ccccc2)c1=O,4,-25,-6%,·,6,
COc1cc(S(=O)(=O)N2CCC(c3nc4ccccc4s3)CC2)ccc1S(=O)(=O)NC1CCCC1,5,1.9,-3%,-9,7,
COc1cc2c(cc1OC)-c1nnc(-c3cccs3)n1C(C)(C)C2,5,-1.4,6%,-14,-3,Arbovirus inh repeat=-1
